VDR inh: Inhibitors of the vitamin D receptor (VDR): qHTS | VDR-SRC2-3 peptide fluorescence polarization, 2 h | AID 504847, 2011 | Vitamin D3 receptor (Homo sapiens), P11473 | actives 0.93% (n = 400,000) | Potency, µM, without a hit: max response, negative = inhibition, most hits filed as inhibitors; active = well fitted inhibition curve with a large enough effect; inconclusive = small, poorly fitted or top-dose-only effect, or another doubt; inactive = no such curve, though single readings can be large or run the other way; note: series mostly up to about 120 µM
Target sequence (P11473 whole entry, looked up): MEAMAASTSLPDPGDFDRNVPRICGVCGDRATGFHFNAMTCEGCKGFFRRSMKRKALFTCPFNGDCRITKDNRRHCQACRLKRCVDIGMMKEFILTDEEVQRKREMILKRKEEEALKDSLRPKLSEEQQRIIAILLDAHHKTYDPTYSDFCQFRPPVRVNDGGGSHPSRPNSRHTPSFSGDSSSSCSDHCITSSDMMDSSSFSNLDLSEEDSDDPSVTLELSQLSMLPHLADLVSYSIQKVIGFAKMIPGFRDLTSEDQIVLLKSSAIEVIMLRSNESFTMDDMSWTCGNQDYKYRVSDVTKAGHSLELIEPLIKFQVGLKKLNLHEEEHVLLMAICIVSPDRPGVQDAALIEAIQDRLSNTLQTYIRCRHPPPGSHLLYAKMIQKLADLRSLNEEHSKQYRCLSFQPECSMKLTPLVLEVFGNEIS
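Reagent solutions, kept cold and dark, are dispensed first; compounds are then pinned in at 23 nl, plates briefly spun, and incubated 2 h at ambient temperature. Inhibition of VDR–SRC2-3 peptide binding is read by fluorescence polarization.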
Numbers without * were called inactive; ? = inconclusive; & = joins results of further samples. % is set by controls: 0 for no effect and ±100 for the full control effect; potency is the fitted concentration of half-maximal effect. A portion of the library (hit frequency here may not be typical).

VDR inh	SMILES
-9%	COc1cc(C(=O)OCC(=O)NCC2CCCO2)cc(OC)c1OC (stereo not given)
-12%	CN(CC(=O)Nc1ccc(OC(F)(F)F)cc1)C(=O)Cc1c(Cl)cccc1Cl
12%	Brc1ccc2c(c1)c1cc(Br)ccc1n2CC1CO1 (stereo not given)
4%	Cc1cccc(N2CCN(C(=O)c3c(-c4ccccc4)noc3C)CC2)c1C
14%	CCC(=O)Nc1ccc(CC)cc1-c1nc2ccccc2n(CC(=O)c2ccc(OC)cc2)c1=O
-1%	CCOC(=O)CNC(=O)c1cc2c(=O)n3cccc(C)c3nc2s1
-8%	CCn1c(SCC(=O)NCC2CCCO2)nc2cc(S(=O)(=O)N3CCCCC3)ccc21 (stereo not given)
-19%	COC(=O)C1=C(C)NC(=S)NC1/C=C/c1ccccc1 (stereo not given)

Of the compounds above, 2 contain a halogen:
VDR inh	SMILES
-12%	CN(CC(=O)Nc1ccc(OC(F)(F)F)cc1)C(=O)Cc1c(Cl)cccc1Cl
12%	Brc1ccc2c(c1)c1cc(Br)ccc1n2CC1CO1 (stereo not given)

The listing continues.
VDR inh	SMILES
-13%	Nc1c(C(=O)NCc2ccc(Cl)cc2)sc2nc(-c3ccc(F)cc3)ccc12
4%	Cn1c(=O)c(-c2cccc(C#N)c2)nc2cnc(Oc3ccccc3)nc21
4%	C/C(CC(=O)Nc1c(Cl)cccc1C(F)(F)F)=N\NC(=O)c1cnccn1
-8%	CC(NC(=O)c1cccc(S(=O)(=O)N(C)C)c1)C1CC2CCC1C2 (stereo not given)
-4%	FC(F)(F)c1nnc2c(Sc3ccccc3)nc3ccc(Cl)cc3n12
-9%	Cc1ccc(-n2ccc(=O)c(C(=O)Nc3ccc(S(=O)(=O)Nc4nccs4)cc3)n2)cc1
-9%	CCc1nnc(NC(=O)CSc2nc3c([nH]c4ccccc43)c(=O)n2-c2ccc(F)cc2)s1
16%	C(#Cc1ccc(C#CCN2CCCC2)cc1)CN1CCCC1

The results go on:
VDR inh	SMILES
10%	COc1cccc(-c2n[nH]c3c2C(c2cccc(O)c2)N(C)C3=O)c1 (stereo not given)
2%	COC(=O)N/N=C/c1cn(CCOc2ccc(OC)cc2)c2ccccc12
-11%	Cc1cc(N2CCOCC2)n2nc(C(F)(F)F)c(-c3ccccc3)c2n1
-4%	CSc1ccccc1NC(=O)COC(=O)Cn1cc(C(F)(F)F)ccc1=O
-8%	CCC(=O)O/N=C(\N)c1ccc(Oc2cc(C)c(Cl)c(C)c2)c([N+](=O)[O-])c1
-11%	CCc1ccc(N2CC(C(=O)OCC(=O)Nc3ccccc3C)CC2=O)cc1 (stereo not given)
-2%	COc1ccc(-n2ccc(=O)c(C(=O)Nc3ccc(S(=O)(=O)Nc4nccs4)cc3)n2)cc1
-6%	O=C(O)C1CC=CCC1C(=O)NCCCCc1ccccc1 (stereo not given)

(further entries)
VDR inh	SMILES
12%&-3%	COc1cc(O)c(C(CC(=O)N2CCOCC2)c2cc(OC)c(OC)c(OC)c2)c(OC)c1 (stereo not given)
3%	COc1ccc(N2C(=O)/C(=C\c3ccco3)N=C2SCC(=O)NC(C)C)cc1Cl
-16%	CC(Sc1nn(-c2ccc(F)cc2)c(=S)s1)C(=O)c1c(N)n(C)c(=O)n(C)c1=O (stereo not given)
?	CCCNS(=O)(=O)c1ccc(CCC(=O)N2CCCCC2)cc1
?	Cc1cccc(C)c1NC(=O)NC1(C(=O)NCCN2CCOCC2)CCCCC1
-3%	O=[N+]([O-])c1ccc(N/N=C/c2sc(N3CCOCC3)nc2-c2ccccc2)c(S(=O)(=O)Nc2ccc(Cl)cc2)c1
-5%	CCNC(=S)NNC(=O)c1cc(-c2cccnc2)nc2ccccc12
2%	COCCn1nnnc1C(c1ccc2ncccc2c1)N1CCc2ccccc21 (stereo not given)

The closing 5 records of the section above are carried over, then new ones follow.
VDR inh	SMILES
?	CCCNS(=O)(=O)c1ccc(CCC(=O)N2CCCCC2)cc1
?	Cc1cccc(C)c1NC(=O)NC1(C(=O)NCCN2CCOCC2)CCCCC1
-3%	O=[N+]([O-])c1ccc(N/N=C/c2sc(N3CCOCC3)nc2-c2ccccc2)c(S(=O)(=O)Nc2ccc(Cl)cc2)c1
-5%	CCNC(=S)NNC(=O)c1cc(-c2cccnc2)nc2ccccc12
2%	COCCn1nnnc1C(c1ccc2ncccc2c1)N1CCc2ccccc21 (stereo not given)
-17%	CCN1C(=O)CS/C1=N\c1nccs1
-23%	CCCCNC(=O)[C@@H]1CSC2c3ccc(OC)c(OC)c3C(=O)N21 (stereo not given in full)
-7%	CCN(CC)S(=O)(=O)c1ccc(OC)c(NC(=S)Nc2ccc(C)c(C)c2)c1
0%	CCn1c(SCC(=O)c2ccc(NC(C)=O)c(OC)c2)nnc1-c1ccc(NS(C)(=O)=O)cc1
-15%	N#C/C(=C\Nc1ccc(Cl)cn1)S(=O)(=O)c1ccccn1
?	O=C(O)CCS(=O)(=O)c1nc(-c2cccs2)cc(C(F)(F)F)n1
10%	CCOC(=O)CNC(=S)N(CCCN1CCCC1)Cc1cccs1
3%	O=C(Nc1nc2ccccc2c(=O)s1)c1ccco1

Reprinted from the results shown (4 entries):
VDR inh	SMILES
0%	CCn1c(SCC(=O)c2ccc(NC(C)=O)c(OC)c2)nnc1-c1ccc(NS(C)(=O)=O)cc1
-15%	N#C/C(=C\Nc1ccc(Cl)cn1)S(=O)(=O)c1ccccn1
?	O=C(O)CCS(=O)(=O)c1nc(-c2cccs2)cc(C(F)(F)F)n1
10%	CCOC(=O)CNC(=S)N(CCCN1CCCC1)Cc1cccs1

(further entries)
VDR inh	SMILES
-5%	CCCCC(NC(=O)c1ccc(C#N)cc1)C(=O)NCCC (stereo not given)
7%	COc1cc(-c2ccc3oc(-c4ccsc4)c(C#CC4(O)CCCCC4)c3c2)cc(OC)c1OC
-4%	O=C(Cn1ncc2c3ccccc3n(Cc3ccccc3)c2c1=O)NCCCN1CCCC1
-14%	CS(=O)(=O)c1ccc(C(=O)Nc2ccc(S(=O)(=O)N3CCCCC3)cc2)cc1
-9%	O=C(NCc1ccccc1)c1ccc(CN2CCC(Cc3ccccc3)CC2)cc1
4%	C[C@@]12CCC(OC(=O)c3ccccc3)CC1CCc1ccccc12 (stereo not given in full)
5%	COc1ccc(CCN(Cc2cccs2)S(=O)(=O)c2ccc(-n3cnnn3)cc2)cc1OC
-9%	Cc1cccc(NC(=S)NC(=O)c2cc(-c3ccccc3)nc3ccccc23)c1

Next structures follow.
VDR inh	SMILES
11%	Cc1ccc(S(=O)(=O)Oc2ccc(/C=N/N=C3/NC(=O)C(CC(=O)O)S3)cc2)cc1 (stereo not given)
15%	O=C1N2CN(C(c3ccccc3)c3ccccc3)CN=C2SC1(CO)CO
-3%	O=C(CS(=O)(=O)c1ccc2ccccc2c1)Nc1ccccc1Cl
-17%	CCN(CC)CCCNC(=O)c1ccc2c(=O)n(Cc3ccc4c(c3)OCO4)c(=S)[nH]c2c1
26%	Cc1ccc2c(c1)c1nnc(SCC(=O)N3CCCc4ccccc43)nc1n2CC(=O)O
2%	CC(=O)Nc1cccc(NC(=O)c2cccc(OCc3ccccc3)c2)c1
4%	Cc1ccc(NC(=O)N2CCCCCC2)cc1C
3%	CCOC(=O)CCc1c(C)c(C#N)c2nc3ccccc3n2c1-n1ccnc1

(list continues)
VDR inh	SMILES
-22%	CCCC(=O)Nc1ccccc1NC(=O)C1CCCCC1
-28%	Cc1ccc(S(=O)(=O)/N=C2/NC(=O)/C(=C\c3ccco3)S2)cc1
-1%	Cn1c(CN2CCN(CC#N)CC2)c(C#N)c2ccccc21
18%	Cc1ccccc1NC(=O)c1nn(-c2ccc(F)c(F)c2)ccc1=O
-2%	O=C1NC[C@H](Cc2ccccc2)N(CC2CCCCC2)C1=O
7%	O=S(=O)(CCn1cccc1)CCn1cccc1
1%	O=C(CSCc1cccc(F)c1)N1CCN(c2ccccc2)CC1
-8%	CCCCCC#CC[C@@H](O)/C=C/C=C/C=C\[C@@H](O)CCCC(=O)O

More records follow:
VDR inh	SMILES
-1%	Cc1cccc(C)c1NC(=O)CN(C)C(=O)COc1cccc2c1OC(C)(C)C2
?	O=C(N/N=C/C(Br)=C\c1ccccc1)c1ccc2nc[nH]c2c1
-12%	CCCCNC(=O)c1onc(CSc2ccc(Cl)cc2)c1C(=O)O
5%	CCOCCCn1c(SCC(=O)Nc2ccccc2Cl)nc2c(oc3ccccc32)c1=O
?	O=C1NC2(CCCCCC2)C(=O)N1Cc1cccc([N+](=O)[O-])c1
-10%	O=C(Nc1ccc(F)cc1)NC1CCN(Cc2nnnn2Cc2ccco2)CC1
-1%	NC(=O)COC(=O)c1ccccc1SCC(=O)NC1CCCCCCC1
-15%	O=C(O)c1ccc(NS(=O)(=O)c2cccc(C(=O)Nc3cccc(C(=O)O)c3)c2)cc1

Other records:
VDR inh	SMILES
-3%	CCc1ccc(C(CNC(=O)c2ccc3c(=O)n(-c4ccccc4F)c(=S)[nH]c3c2)N(C)C)cc1 (stereo not given)
-5%	O=C(Cn1nnc(-c2ccccc2-n2cnnn2)n1)c1ccccc1
-9%	COc1ccc(NC(=O)CC(C)n2ccnc2)cc1 (stereo not given)
-6%	Cc1c(OCC(=O)NCc2ccncc2)ccc2c3c(c(=O)oc12)CCCC3
5%	CCOC(=O)CN(C(=O)CNC(=O)c1cccs1)C(C(=O)NC1CCCCC1)c1cccs1 (stereo not given)
-3%	COc1ccc(/C=C/C(=O)NC(=S)Nc2ccc(S(N)(=O)=O)cc2)cc1OC
-9%	COc1ccc(-n2c(SC(C)C(=O)Nc3ncc(Cl)cc3Cl)nc3ccccc32)cc1 (stereo not given)
-5%	Clc1ccc(-c2cc3ncc4c(n3n2)-c2ccccc2OC4)cc1

Following part:
VDR inh	SMILES
-16%	O=C(CN1C(=O)NC2(CCCC2)C1=O)Nc1nc2ccccc2[nH]1
-16%	CC1CN(S(=O)(=O)c2cccc(C(=O)OCCOc3ccccc3)c2)CC(C)O1 (stereo not given)
-11%	CCc1ccc(OCC(=O)NNC(=O)c2ccc(-n3cncn3)c([N+](=O)[O-])c2)cc1
-9%	COc1ccccc1CN1CCN(Cc2ccco2)CC1
14%	O=C(Nc1ccc(F)cc1)c1ccccc1CC[N+](=O)[O-]
-7%	CCOC(=O)c1[nH]c(C)c(C(=O)N2CCc3c([nH]c4ccccc34)C2c2ccccn2)c1C (stereo not given)
-1%	COC(=O)c1c(C)nn(-c2ccc(OC(F)(F)F)cc2)c1-c1snnc1C
0%	O=C(OCC(=O)N1CCCC1)c1cc(Br)ccc1Cl

(more compounds)
VDR inh	SMILES
-6%	COc1ccc(-c2csc(NC(=O)CSCC(=O)Nc3cc(C)on3)n2)c(OC)c1
-11%	CC(C)/C=C/CN1CCCC(N2CCN(c3cccc(Cl)c3)CC2)C1 (stereo not given)
-1%	CC(C)c1ccc(-c2cc(C(=O)N3CCOCC3)c3cc(Br)ccc3n2)cc1
?	COc1ccc(-c2nc(-c3ccccc3)oc2Nc2ccc3ccccc3c2)cc1
-1%	O=C(CC1C(=O)NCCN1Cc1ccc(F)cc1)NCCN1CCCc2ccccc21 (stereo not given)
-1%	O=c1[nH]c(SCc2ccc(Br)cc2)nc2c1CCCC2
-6%	O=C(NCc1ccccc1Cl)c1ccc(CSCc2ccccc2Cl)o1
1%	COCCN1C(=O)N[C@@H](c2cccc(C(F)(F)F)c2)[C@@H](C(=O)OC)[C@H]1C

(more compounds)
VDR inh	SMILES
-12%	O=C(Nc1nc(-c2ccccn2)cs1)c1ccc([N+](=O)[O-])o1
-3%	CC(C)c1ccc(/C=C2\SC(N3CCOCC3)=NC2=O)cc1
-18%	Cc1nc2cc(-c3cccc(F)c3)nn2c(C)c1CCC(=O)N1CCN(c2ccc(F)cc2)CC1
3%	COc1ccc(C(=O)N2CCN(c3ccc(C(C)=O)cc3)CC2)cc1S(=O)(=O)N1CCCC1
9%	O=[N+]([O-])c1ccc(COc2cccc(CN3CCCCC3)c2)cc1
-8%	O=C1C2CC=CCC2C(=O)N1Cc1nnc(-c2ccc(Cl)cc2)o1 (stereo not given)
-7%	CCC1OC(=O)C(C)[C@@H](O[C@H]2C[C@@](C)(OC)C(O)C(C)O2)C(C)[C@@H](O[C@@H]2OC(C)CC(N(C)C)C2O)[C@@](C)(O)CC(C)CN(C)C(C)C(O)[C@]1(C)O (stereo not given in full)
2%	CCOC(=O)c1cc(-c2ccccc2)n(CCC(=O)NCCc2cccc(C)c2)c1C

Continued:
VDR inh	SMILES
4%	CCCCNC(=O)NC12CC3CC(CC(C3)C1)C2
6%	COC(=O)/C(C)=C/CC12OC(C)(C)C3CC(C=C4C(=O)c5cc6c(c(CCC(C)(C)Cl)c5OC431)OC1(C)CCC(=C(C)C)C6C1)C2=O (stereo not given)
3%	COc1ccccc1NS(=O)(=O)c1cccs1
-2%	Cc1ccccc1Nc1c(-c2ccccc2O)nc2sccn12
-3%	CCCC(=O)N(Cc1cc(=O)[nH]c2ccccc12)c1ccc(C)cc1C
-5%	Cc1ccc(NC(=O)Cn2cnc3sc(C(=O)O)c(C)c3c2=O)cc1Cl
-12%	CSc1ccc(-c2nc(CN3CCCCC3c3cccnc3)c(C)o2)cc1 (stereo not given)
9%	Cc1nn(C2CCCCC2)c(N)c1-c1ccccc1

Following part:
VDR inh	SMILES
-17%	CCCCOc1ccc(-c2nnc(-c3cc[n+](C)cc3)o2)cc1
9%	CCN(c1ccccc1)S(=O)(=O)c1nnc(NC(=O)C(C)Oc2ccccc2)s1 (stereo not given)
15%	COC(=O)c1c(Oc2ccc(Br)cc2)nnc(-c2ccccc2)c1-c1ccccc1
5%	CCOc1ccc(-c2cc3c(=O)n(CC(=O)Nc4cc(F)ccc4C)ccn3n2)cc1
18%	CSc1ccccc1NC(=O)CN(C1CCCCC1)S(C)(=O)=O
